KCNQ2 enhance: potentiators of rat KCNQ2 potassium channel. Potassium voltage-gated channel subfamily KQT member 2 (Rattus norvegicus), O88943. CHO-K1 KCNQ2, FluxOR thallium flux fluorescence; active compounds read high. B-score at 10 µM. hit rate 0.54% among 310,000;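 active = fluorescence ratio B-score at least 3 SD of library B-scores, with initial fluorescence B-score within 3 SD, cut at about 5.3 in these data; same plate scores as AID 2156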;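 note: B-score of peak minus minimum over baseline fluorescence ratio after K+ and Tl+ stimulus; positive B-score means potentiation of KCNQ2 with more thallium influx and brighter signal; only the inactives scoring about 0 or higher are listed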
Target sequence (O88943 whole entry, looked up): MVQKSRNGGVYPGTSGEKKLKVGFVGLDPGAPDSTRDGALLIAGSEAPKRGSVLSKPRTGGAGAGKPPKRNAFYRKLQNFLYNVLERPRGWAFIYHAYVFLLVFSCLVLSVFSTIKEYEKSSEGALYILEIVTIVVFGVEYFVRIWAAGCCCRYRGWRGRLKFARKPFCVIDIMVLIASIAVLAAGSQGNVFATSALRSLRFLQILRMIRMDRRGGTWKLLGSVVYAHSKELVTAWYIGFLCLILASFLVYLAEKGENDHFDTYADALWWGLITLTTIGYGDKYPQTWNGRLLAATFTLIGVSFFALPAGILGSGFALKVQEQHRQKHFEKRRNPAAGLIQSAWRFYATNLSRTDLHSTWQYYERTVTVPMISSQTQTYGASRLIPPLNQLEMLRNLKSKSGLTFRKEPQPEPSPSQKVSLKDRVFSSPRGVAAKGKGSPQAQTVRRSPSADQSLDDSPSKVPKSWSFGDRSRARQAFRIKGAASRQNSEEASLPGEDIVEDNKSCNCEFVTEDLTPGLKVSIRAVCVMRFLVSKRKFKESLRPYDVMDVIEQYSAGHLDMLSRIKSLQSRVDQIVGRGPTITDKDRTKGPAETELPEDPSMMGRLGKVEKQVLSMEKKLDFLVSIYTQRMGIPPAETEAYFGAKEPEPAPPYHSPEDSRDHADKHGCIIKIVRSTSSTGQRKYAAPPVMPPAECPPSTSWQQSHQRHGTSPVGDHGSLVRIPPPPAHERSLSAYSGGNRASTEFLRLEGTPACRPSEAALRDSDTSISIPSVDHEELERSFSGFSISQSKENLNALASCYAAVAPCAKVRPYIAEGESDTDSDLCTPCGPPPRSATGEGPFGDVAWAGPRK
KCNQ2 enhance baseline: second read-out of KCNQ2 enhance, no call of its own (marks repeat the call); B-score; compound at 10 µM; measured here: initial fluorescence intensity artifact check;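 brightness before thallium and not channel activity; 0 = typical well and far values either way flag optical interference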
The depositor's hits bear a star.

cpd	Molecule	KCNQ2 enhance	KCNQ2 enhance baseline
1	O=[n+]1c2c(n([O-])c3ccccc31)CCC2	0.89	0.36
2	CC1Cc2cc(/C(O)=C3\C(=O)C(=O)N(CCN(C)C)C3c3ccccc3F)ccc2O1 (stereo unspecified)	1.5	0.01
3	O=c1oc2cc(OCc3c(F)cccc3Cl)ccc2cc1-c1ccccn1	0.4	-0.25
4	Cc1cc(C)nc(NC(N)=NCCc2c[nH]c3ccccc23)n1	1.4	0.03
5	COc1cc(OC)c(NC(=O)CCCn2c(=O)oc3ccccc32)cc1Cl	0.45	0.36
6	CC(=O)Nc1ccc(S(=O)(=O)Nc2c(NC3CCCCC3)c3ccccc3oc2=O)cc1	0.23	-1.4
7	CCOC(=O)[C@@H]1[C@H]2COc3cc(OC)ccc3[C@H]2N2C(=O)N(c3ccc(F)cc3)C(=O)[C@@]12C	0.37	-0.18
8	CCOC(=O)N1CCN(S(=O)(=O)c2cc(Br)cnc2N)CC1	1.1	-0.75
9	Cc1cc(=O)oc2cc(Oc3ccc(C(N)=O)cc3[N+](=O)[O-])ccc12	0.34	1.1
10	Fc1ccc(-c2c[nH]c(=S)n2Cc2ccccc2)cc1	2	-0.21
11	CCN1C(=O)c2cccc3c(S(=O)(=O)Nc4ccc(O)c(C(=O)O)c4)ccc1c23	0.65	-0.14
12	COc1ccc(CCC(=O)N2CCN(c3ccccc3)CC2)cc1OC	0.07	-0.71
13	CCOc1ccc(Oc2nc(N(CC)CC)nc(N3CCOCC3)n2)nn1	0.4	-0.84
14	COC(C[C@@H](O)[C@H](C)[C@H](O)COCc1ccccc1)OC	1.3	0.73
15	CCOc1ccc(CCNC(=O)COc2cccc(-n3cnnn3)c2)cc1OCC	0.67	-0.89
16	CCCCNC(=S)NNC(=O)C1=NN(c2cc(C)ccc2C)C(=O)CC1	0.25	-0.27
17	O=C(Cc1ccc(F)cc1)Nc1c2c(nn1-c1cccc(Cl)c1)CS(=O)C2 (stereo unspecified)	1.9	-0.62
18	CC(C)N1C(=O)CCC1C(=O)N1CCC(Cc2ccccc2)CC1 (stereo unspecified)	0.73	0.1
19	COc1cccc(CNC(=O)C2CCC(CNS(=O)(=O)c3cccc4nsnc34)CC2)c1 (stereo unspecified)	3	0.54
20	CCOC(=O)c1ccc(N=C2SC(C(=O)NCCc3ccccc3)CC(=O)N2C)cc1 (stereo unspecified)	0.9	-0.79
21	C=CCn1c(SCC(=O)NC)nnc1C12CC3CC(CC(C3)C1)C2	0.71	1.7
22	CCCCN(C)C(=O)c1cc2cc([N+](=O)[O-])cc(OC)c2oc1=O	0.49	2
23	O=C(NCCCC(=O)N1CCCCC1)c1ccc(Cl)cc1	1.2	-0.92
24	COc1ccc(N(CC(=O)Nc2cc(C)cc(C)c2)S(=O)(=O)c2ccccc2[N+](=O)[O-])c(OC)c1	0.54	0.84
25	Cc1cccc(NC(=O)CNC(=O)C23CC4CC(CC(Cl)(C4)C2)C3)n1	0.31	-0.12

cpd	Molecule	KCNQ2 enhance	KCNQ2 enhance baseline
26	CCCCn1c(N)c(N(CC(C)C)C(=O)CC(NC(=O)c2ccccc2)c2ccccc2)c(=O)[nH]c1=O (stereo unspecified)	0.26	1.1
27	O=C(NC(=S)Nc1ccccc1)c1cncc(C#Cc2ccccc2)c1	2.1	-0.24
28	Cc1ccc(S(=O)(=O)N2C(=O)c3cccc4cccc2c34)cc1	0.26	1.2
29	Cc1ccc(N2CCCn3c2cc(C)c(C#N)c3=O)cc1Cl	0.44	-0.67
30	Cc1ccc2cc(C=C(C#N)C#N)c(N3CCCCC3)nc2c1	1.4	-0.68
31	O=S(=O)(C(=CNc1ccccc1)S(=O)(=O)c1ccccc1)c1ccccc1	0.51	-2.2
32	Cc1[nH]c2ccc(Br)cc2c(=S)c1C/C=C/Cl	1.5	0.15
33	CCC(C)NCC(=O)Nc1ccc(S(N)(=O)=O)cc1 (stereo unspecified)	0.18	-0.29
34	CCC(=O)Nc1ccc(C(=O)CSc2nnc(-c3ccc(O)cc3)n2CC2CCCO2)cc1 (stereo unspecified)	0.03	-0.33
35	CCC(C)[C@H](NC(=O)N1CCC(Cc2ccccc2)CC1)C(=O)O (stereo partly specified)	0.34	1.1
36	O=C(CSc1nnc(NC(=O)c2ccccc2C(=O)O)s1)Nc1ccccc1Cl	1.9	-0.06
37	CCCCCN(C(=O)CCC(=O)OCc1cccc(Cl)c1)c1c(N)n(CCCC)c(=O)[nH]c1=O	0.58	-0.01
38	Cc1ccccc1C(=O)N/N=C/c1ccc(OCC(=O)N2CCCCC2)cc1	0.54	-0.53
39	CCCC(=O)NC(=S)N1CCN(c2ccc([N+](=O)[O-])cc2)CC1	0.39	1.1
40	Cc1ccc(-c2noc(CN(C)C(=O)Nc3ccc(F)cc3)n2)cc1	0.68	0.05
41	O=c1[nH]c(=S)[nH]c(O)c1N=Nc1ccc(-c2ccccc2)cc1[N+](=O)[O-]	3.5	0.18
42	CSC1CCCCC1(O)CSc1nc2c(cc1C#N)CCCC2 (stereo unspecified)	0.37	-1.6
43	COc1ccc(C(CNc2ccc(S(C)(=O)=O)cc2[N+](=O)[O-])N(C)C)cc1OC (stereo unspecified)	0.25	2.1
44	Cc1ccc(-c2nn(CC(=O)NCCN3CCOCC3)c(=O)c3ccccc23)cc1	0.48	-1
45	NC(N)=N/N=C/c1ccccc1OC(F)F	0.17	0.03
46	CCCNC(=O)C1CN(S(=O)(=O)c2ccc(C)cc2)c2ccccc2O1 (stereo unspecified)	0.45	0.7
47	CCn1c(CSc2nc3ccccc3s2)nnc1SCC(=O)c1ccc2c(c1)OCCO2	1.2	-1.5
48	CC(=O)Nc1ccccc1-c1nc2ccc(C(=O)N3CCN(c4cccc(C)c4)C(C)C3)cc2[nH]c1=O (stereo unspecified)	1.3	-0.62
49	CCOCCOC(=O)C(C)Sc1n[nH]c(=O)[nH]c1=O (stereo unspecified)	0.47	1.7
50	CCN1C(=O)C2(C(C(=O)c3ccc(C)o3)=C(O)C(=O)N2CCCN(C)C)c2ccccc21 (stereo unspecified)	1.5	-1.3

cpd	Molecule	KCNQ2 enhance	KCNQ2 enhance baseline
51	COc1ccccc1-c1c(C#N)c(N)nc2c1CCC2	0.3	-0.26
52	CC12COC3(C(=O)Nc4nccs4)CC1CCC32C (stereo unspecified)	1.4	-2.2
53	COC(=O)c1ccc(OC(=O)CCc2cc(OC)c(OC)c(OC)c2)cc1	0.29	-0.59
54	COc1ccc(CNC(=O)C2CC(c3ccc(C(F)(F)F)cc3)=NO2)cc1 (stereo unspecified)	1.6	-0.52
55	CC(=O)Nc1ccc(Nc2c([N+](=O)[O-])c(=O)n(-c3ccccc3)c3ccccc23)cc1	0.29	2
56	CCCCN(C)CCCNC(=O)C1(O)c2ccccc2NC(=O)N1c1ccc(Cl)cc1 (stereo unspecified)	0.45	-0.1
57	Cn1c(=O)c(C#N)c(-c2ccccc2)n2cnnc12	0.42	0.32
58	O=C(NCCc1ccccc1)c1cccnc1	1.2	-1.9
59	Cc1ccc(-c2nc(CN(C)C3CCOCC3)c(C)o2)s1	0.16	-0.37
60	CCOC(=O)CNC(=O)c1cc(OC)cc(OC)c1	0.98	0.36
61	COc1cc(C2C(C(=O)c3ccc(C)o3)=C(O)C(=O)N2c2cc(C)on2)ccc1OCc1ccccc1 (stereo unspecified)	0.41	-0.16
62	COc1ccc(C)cc1S(=O)(=O)N(C)CC(=O)Nc1ccc2c(c1)OCCO2	2.5	-0.77
63	O=C(CSc1nc(O)cc(=O)n1-c1ccccc1)c1ccc(Br)cc1	0.34	-0.25
64	CC1CN(C(=O)COC(=O)c2ccc(F)cc2Cl)CC(C)O1 (stereo unspecified)	0.65	1.3
65	CC(C)Nc1ccc(C(CC(N)=O)NC(=O)Cc2cccc3ccccc23)cc1[N+](=O)[O-] (stereo unspecified)	0.42	-1.8
66	CCOC(=O)c1ccc(N=c2ssnc2Cl)cc1	0.64	0.69
67	CC/C(=N/NC(=O)c1ccc(Br)o1)c1ccc(Cl)cc1	1.2	-0.01
68	Cc1ccc(NC(=O)c2ncc(Cl)c(Cl)c2Cl)cc1C	0.56	-0.81
69	Cc1cccnc1-n1c(CCN2C(=O)c3ccccc3C2=O)nc2ccccc2c1=O	2.8	0.82
70	CC(C)CN(C(=O)C1CC1)C1CCS(=O)(=O)C1 (stereo unspecified)	0.78	-1.1
71	Cc1cc(C)cc(NC(=O)CSc2nnnn2-c2cccnc2)c1	0.68	0.2
72	Cn1c(=O)oc2cc(S(=O)(=O)NCc3ccc(Cl)cc3)ccc21	0.87	0.55
73	Cc1cccc(Nc2c(-c3ccc(N4CCOCC4)cc3)nc3ncccn23)c1	0.75	-0.09
74	O=C(COC(=O)CCCNC(=O)c1ccc(Cl)cc1)Nc1cc(Cl)c(Cl)cc1Cl	1.1	-0.71
75	CCC(=O)Nc1nnc(S(=O)(=O)N(CC)c2ccc(OC)cc2)s1	0.3	0.12

Reprinted at random: five entries already listed
cpd	Molecule	KCNQ2 enhance	KCNQ2 enhance baseline
58	O=C(NCCc1ccccc1)c1cccnc1	1.2	-1.9
56	CCCCN(C)CCCNC(=O)C1(O)c2ccccc2NC(=O)N1c1ccc(Cl)cc1 (stereo unspecified)	0.45	-0.1
70	CC(C)CN(C(=O)C1CC1)C1CCS(=O)(=O)C1 (stereo unspecified)	0.78	-1.1
54	COc1ccc(CNC(=O)C2CC(c3ccc(C(F)(F)F)cc3)=NO2)cc1 (stereo unspecified)	1.6	-0.52
71	Cc1cc(C)cc(NC(=O)CSc2nnnn2-c2cccnc2)c1	0.68	0.2

Compound profiles (already shown).
`Cn1c(=O)oc2cc(S(=O)(=O)NCc3ccc(Cl)cc3)ccc21` is entered as KCNQ2 enhance: 0.87; KCNQ2 enhance baseline: 0.55
`O=C(NCCc1ccccc1)c1cccnc1` is entered as KCNQ2 enhance: 1.2; KCNQ2 enhance baseline: -1.9

Further structures follow:
cpd	Molecule	KCNQ2 enhance	KCNQ2 enhance baseline
76	O=C(Nc1cc(N2CCCCC2)ncn1)c1ccc(F)cc1	1.8	0.15
77	Cc1ccc(C(C)C)c(OCc2nc(-c3nonc3N)no2)c1	1.2	1.1
78	CC1(C)CC(=O)C=C(NCCCNC2CCCCC2)C1	1	-0.12
79	CN(C)c1cc(N)c2ccccc2n1 (tested in a mixture with another compound)	1.7	-0.49
80	Cc1cc(C)c(S(=O)(=O)N2CCCOC2CNC(=O)C(=O)NCc2ccncc2)c(C)c1 (stereo unspecified)	0.5	-0.47
81	Cc1cc([N+](=O)[O-])nn1Cc1ccc(C(=O)N/N=C/c2ccc(N(C)C)cc2)cc1	0.92	-2.8
82	COc1ccc(C(=O)N/C(=C/c2ccc(Cl)cc2)C(=O)NCc2ccncc2)cc1	0.35	0.15
83	Cc1ccc(S(=O)(=O)NCCCNS(C)(=O)=O)cc1	0.97	0.93
84	Nc1nc(Nc2ccccc2)nc(N2CCCC2)c1[N+](=O)[O-]	0.4	1.1
85	CCOc1cc2c(cc1/C=C/C(=O)O)OC(C)C2 (stereo unspecified)	0.65	0.11
86	O=C(Nc1cc(S(=O)(=O)N2CCOCC2)ccc1N1CCCC1)c1cnccn1	0.75	0.64
87	CCC(=O)c1ccc(OC)c(OC)c1O	0.02	0.54
88	COc1cc(C)c(NC(=O)C(=S)N2CCCC2)cc1C	0.97	0.37
89	CCN(CC)CCN1C(=O)c2oc3ccc(F)cc3c(=O)c2C1c1ccncc1 (stereo unspecified)	0.03	-0.84
90	CCC(C)[C@H](NC(=O)Nc1ccc(Oc2ccccc2)cc1)C(=O)O (stereo partly specified)	0.22	-0.4
91	COc1cccc(NC(=S)NC(=O)c2cncc(Br)c2)c1	0.96	1.4
92	Cc1cc(C(=O)N/N=C/c2cc(Br)cc([N+](=O)[O-])c2O)c2ccccc2n1	0.31	-1
93	O=C(Nc1ccc2oc(-c3ccccc3)nc2c1)c1ccncc1	0.04	-0.63
94	O=C(NNC(=O)C12CC3CC(CC(C3)C1)C2)c1ccccc1F	0.78	0.39
95	CN(c1ccccc1)S(=O)(=O)c1ccc(C(=O)Nc2ccncc2)cc1	2.5	-0.11
96	COCCn1nnnc1C(c1cccc(C(F)(F)F)c1)N1CCOCC1 (stereo unspecified)	0.18	1.6
97	COc1cc2c(c(OC)c1O)C(=O)CO2	0.84	-0.67
98	CCOC(=O)c1ccccc1NC(=S)N1CCC(N2CCCCC2)CC1	0.38	-0.31
99	CCN(CC)CCN(C(=O)Cn1nnc(-c2ccc(C)o2)n1)C(C(=O)NC1CCCC1)c1ccc(F)cc1 (stereo unspecified)	1.3	-1.6
100	CCn1cnc2c(oc3ccccc32)c1=O	0.86	1.2

cpd	Molecule	KCNQ2 enhance	KCNQ2 enhance baseline
101	CCOC(=O)c1cnn2c(C(F)(F)F)cc(-c3cn(C)nc3C)nc12	1.5	-1.9
102	O=C1C=C(NCCN2CCOCC2)C(=O)c2cnccc21	1.6	-1.2
103	C=CCOC(=O)c1ccc(-n2cnc(C)n2)nc1	1.8	0.11
104	CCSc1nc2sc3c(c2c(=O)[nH]1)CCCC3	1.5	-1.7

A portion of the library, so the mix of outcomes need not match the whole.
